AID504770: growth inhibition of E. coli YBA685, primary screen, V. cholerae RctB inhibitors | z-score (concentration not given with the values) | E. coli YBA685 rctB-dependent plasmid, OD600 growth, 3 h; active compounds read low | 130,000 tested, 0.27% active;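 active = z-score under -2 on both plates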;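 note: wells of about 30 µL received 100 nL stock; score is relative to mean and SD of the test wells; the first replicate is given; strong numbers were not always called active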
CapD inh: Bacillus anthracis CapD inhibitors, primary screen, biochemical, fluorescence intensity. purified CapD enzyme, fluorescence intensity read-out; active compounds read low; some hits fall short of the stated cut. 140,000 tested, 0.23% active. z-score (no concentration beside the values). AID 492967, 2010;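 active = z-score under -4 in either of two replicates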;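 note: stock transfer was 100 nL into about 40 µL; score is relative to mean and spread of the plate; one replicate is shown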
* hit, by the source's call; nt = not tested or not shown; & = joins results of further samples.

SMILES | AID504770 | CapD inh
CN(C)CCCNCc1cccs1 | -0.4 | nt
CSc1nc2c(c(=O)n1-c1ccccc1C)C1(CCCC1)Cc1ccccc1-2 | nt | -0.92
c1ccc(CN2CCC(n3nnc4cccnc43)CC2)cc1 | nt | -0.44
CC(=O)Nc1nc(CSc2nc3ccccc3n2C)cs1 | 0.25 | nt
Cc1ccc2oc(=O)c3cc(C(=O)NCCc4ccsc4)sc3c2c1 | 0.95 | 1.3
CSc1sc(C(=O)NN)cc1C#N | -0.25 | -0.41
CCn1c(SCC(=O)N2CCOCC2)nc2ccc(I)cc2c1=O | 1.4 | -0.35
S=C(NCCSCc1ccco1)NC1CCCCC1 | -0.65 | nt
CCCCOc1ccc(C(=O)CCN2CCCCC2)cc1 | -0.05 | -0.44&0.13
CCc1cccc(NC(=O)C(NC(=O)C2CCCCC2)C(C)C)c1 (configuration not stated) | 0.75 | -0.36
CCOc1ccc(Cc2c[nH]c(=O)[nH]c2=O)cc1 | -1.1 | nt
Cc1c(CCN)c2cccc3c2n1CCC3 | 0 | 0.66
COC(=O)c1ccccc1SCC(=O)c1sc(-c2ccccc2)nc1C | nt | -0.39
Oc1ccc(C=Nc2ccccc2-c2nc3ccccc3[nH]2)c(O)c1 | 0 | 62
COc1ccc(Cl)cc1C(=O)Nc1nc(-c2ccc(C)o2)cs1 | 0.5 | nt
O=C(CSn1nnnc1-c1ccccc1)c1ccccc1 | -0.25 | -0.14
Cc1nc(-c2ccc3[nH]c(=O)oc3c2)cs1 | -1.8 | nt
Cn1nccc1NC(=O)CCCC(=O)O | -0.7 | 0.25
COc1ccc(C2CC(c3cc(OC)cc(OC)c3)=NC(N)=N2)cc1 (configuration not stated) | 0.2 | 0.24
Nc1nc(-c2ccc(Cl)cc2)cs1 | nt | 0.3

4 entries from above, with two lines to a compound.
Screens in order – AID504770, CapD inh
Cc1nc(-c2ccc3[nH]c(=O)oc3c2)cs1
    -1.8, nt
Cn1nccc1NC(=O)CCCC(=O)O
    -0.7, 0.25
COc1ccc(C2CC(c3cc(OC)cc(OC)c3)=NC(N)=N2)cc1 (configuration not stated)
    0.2, 0.24
Nc1nc(-c2ccc(Cl)cc2)cs1
    nt, 0.3

Other compounds follow.
SMILES | AID504770 | CapD inh
CCSc1nnc(CNC(=O)c2cccc(OC)c2)n1-c1ccccc1OC | -0.7 | nt
CC(C)N(C(=O)Cn1c(CO)nc2ccccc21)c1ccccc1 | -0.85 | 0.86
CCCc1cc(=O)[nH]c(SCC(=O)N2c3ccccc3Sc3ccccc32)n1 | -0.35 | 0.68
Cc1nc(SCc2c(F)cccc2Cl)[nH]c(=O)c1C | nt | 0.02
C=CCSc1nc2c(cnn2-c2ccc(C)cc2)c(=O)[nH]1 | 2.4 | -0.05
Cc1c(Cl)cccc1NC(=O)CSC1=C(C#N)C(c2ccc3c(c2)OCO3)C2=C(CCCC2=O)N1 (configuration not stated) | nt | 5.2
CC(C)(C)c1csc(-c2ccc(-c3csnn3)cc2)n1 | -1.8 | -0.92
COc1ccc(N2CCN(C(=O)Cc3c(C(=O)O)n(C)c4ccccc34)CC2)cc1 | -0.3 | 0.48
O=C1CC(c2ccccc2)C(C(=O)O)N1 (configuration not stated) | 1.9 | -0.1
O=C(Cn1c(=O)cnc2ccccc21)NCC1CCCO1 (configuration not stated) | 2.5 | nt
FC(F)(F)c1ccc(-n2ccnc2)cc1 | -1.2 | -0.74
CC(C)(C)OC(=O)N1CCC(O)CC1 | -0.45 | -0.34
O=c1[nH]nc(-c2ccccc2)o1 | -1.3 | nt
COC(=O)c1ccc(Cl)cc1NS(=O)(=O)c1ccc(OC)c(OC)c1 | nt | -0.2
Cc1csc(SCC(=O)N(C)Cc2ccccc2C)n1 | 0.2 | nt
Cc1nc2ccccc2n1S(=O)(=O)c1cccc(C(F)(F)F)c1 | -0.2 | nt
Cc1ccc(NC(=O)/C(C#N)=C/c2cn(CC(=O)NCc3ccco3)c3ccccc23)c(C)c1 | -0.25 | nt
O=C(O)C1Cc2[nH]cnc2C(c2ccc(F)cc2)N1 (configuration not stated) | -1.2 | nt
O=C(CN1c2ccccc2S(=O)(=O)c2ccccc21)Nc1cccnc1 | 1 | 1.8
CCOC(=O)c1c(C)[nH]c(C)c1S(=O)(=O)NCC(=O)Nc1ccc(Cl)c(C(F)(F)F)c1 | 0 | 0.14
Cn1nnnc1SCC(=O)Nc1ccc2nc(SCC(=O)c3ccc(Cl)cc3)sc2c1 | nt | 0.68
O=C(O)CCN1CCn2c1nc1ccccc12 | -0.9 | -0.02
CN(C)C(=O)Cn1c(-c2ccc(F)cc2)ccc(C#N)c1=O | -0.95 | nt
Cc1cc(C)c2c(n1)SCC(=O)N2CCCC(=O)NCc1cccc(Br)c1 | -0.45 | -1.1
S=C(SCc1ccc(CSC(=S)N2CCOCC2)cc1)N1CCOCC1 | 1.1 | -0.025
CCOc1ccc(C(=O)Cc2ccc3oc(C(=O)O)cc3c2)c(O)c1 | 0.2 | nt
C=CCSc1n[nH]c(-c2ccc(C(F)(F)F)cc2)n1 | 0.05 | 11
CN1C(=O)SC(N(CC(N)=O)c2ccccc2)C1=O (configuration not stated) | 0.05 | nt
CCOC(=O)c1ccccc1-c1csc(NC(=O)c2ccc(OC)cc2)n1 | nt | 1.8
CN1C(=O)CC(NCCc2ccc(S(N)(=O)=O)cc2)C1=O (configuration not stated) | 0.3 | nt
N#Cc1ccc(OCC(=O)c2ccc3c(c2)OCO3)cc1 | -1.5 | nt
COc1cc(C(=O)Nc2cccc3c(C)c(C)[nH]c23)cc(OC)c1OC | nt | -0.67
CC(=O)Oc1ccccc1C(=O)N1CC(C)CC(C)C1 (configuration not stated) | -0.2 | 0.38
Cc1c(C(c2ccc(C(C)C)cc2)c2c(C)n(C)n(-c3ccccc3)c2=O)c(=O)n(-c2ccccc2)n1C | nt | 0.12
Cc1cc(C)nc(OC(Cc2nc3ccccc3o2)c2cccc(C(F)(F)F)c2)n1 (configuration not stated) | nt | -0.34
CCOC(=S)SCc1c(F)cccc1Cl | nt | -0.51
CCc1ccc(N(Cc2cc(=O)n3ccccc3n2)C2=NC3CS(=O)(=O)CC3S2)cc1 (configuration not stated) | -1.1 | nt
CCOC(=O)c1oc2ccc(S(=O)(=O)N3CCOCC3)cc2c1C | 0.05 | 0.085
O=C(Nc1nc2ccccc2s1)C(F)(F)F | 0.3 | 0.37
Cc1ccc(Oc2cc(C#N)c3ccccc3n2)cc1C | -0.9 | -0.4
Cc1cccc(NC(=O)c2cc(=O)[nH]c3ccccc23)c1 | -0.2 | 1.5
FC(F)(F)c1cnc(Sc2nccc(/C=C/c3cccs3)n2)c(Cl)c1 | nt | 0.6
COC(=O)c1ccc(C2SCC(=O)N2CCC(C)C)cc1 (configuration not stated) | -0.35 | nt
CCCC(=O)Nc1sc(C)c(C)c1C#N | -0.75 | nt
N#CC(C#N)=C(N1CCOCC1)C(F)(F)F | -0.45 | nt
COCC(C)N=C1NN=C(c2cc(C)n(CC3COc4ccccc4O3)c2C)CS1 (configuration not stated) | 0.65 | nt
O=C(O)C1Cc2ccccc2CN1C(=O)c1ccco1 (configuration not stated) | -0.45 | -0.095
CC1CCCN(S(=O)(=O)c2ccc(S(=O)(=O)N3CCN(C=O)CC3)cc2)C1 (configuration not stated) | 1.9 | nt
CC(C)c1ccc(C(C)N)cc1 (configuration not stated) | -1.7 | nt
COc1cc(C2CC(=O)N(c3cc(C)on3)C(=O)C2)cc(OC)c1OC | nt | 1.1
OC(CCCN1CCOCC1)c1ccc(F)cc1 (configuration not stated) | nt | -1.2
CCC(=O)N(c1nnc(SCc2csc(N(C(C)=O)c3ccccc3)n2)s1)C1CC1 | 0.25 | nt
CN(C)c1nc(-c2ccccc2)nc(Nc2cccc(C(F)(F)F)c2)c1C#N | -0.3 | 0.49
O=C(c1ccc2c(c1)OCCCO2)c1cccs1 | 0.35 | 0.23
COc1ccc2[nH]cc(CCNC(=O)c3ccsc3)c2c1 | nt | -1.1
CC(C)CCNC(=O)c1cnn2c(C(F)(F)F)cc(-c3ccco3)nc12 | -0.5 | 1.4
CN1CCN(CC(O)COCCC23CC4CC(CC(C4)C2)C3)CC1 (configuration not stated) | -0.55 | 0.05
CC1Cc2cc(S(=O)(=O)Nc3ccccc3N3CCN(C)CC3)ccc2N1C(=O)C1CC1 (configuration not stated) | -0.15 | -0.28
Cc1oc(C(C)(C)C)cc1C(N)=O | 0.7 | 1.2
O=C1c2ccccc2C(=O)N1CCc1nc(-c2cccnc2)no1 | -0.05 | 0.11
The list goes on.
SMILES | AID504770 | CapD inh
Nc1ccc(Oc2c(Cl)cccc2Cl)nc1 | nt | 1.5
O=C(O)/C=C/C(=O)Nc1cccc(NC(=O)/C=C/C(=O)O)c1 | 0.4 | 0.98
CCNc1nc(NCC)n2c(SCC(=O)c3ccc(C(C)(C)C)cc3)nnc2n1 | nt | -0.38
Cc1c(C(=O)Cc2ccccc2)n(C)c2ccccc12 | -0.2 | 1.7
COc1ccc2[nH]c(=O)c(C(=O)O)cc2c1 | -1.1 | 61
S=C(Nc1ccccc1)N1CCc2ccccc21 | -0.05 | -0.06
O=C(c1cc(Cl)cc(Cl)c1)c1cc(Cl)cc(Cl)c1 | nt | 0.04
Fc1ccccc1-c1nc(N2CCC3(CC2)OCCO3)c2ccccc2n1 | nt | -0.28
Cc1nc2c(-c3ccccc3)c(C)nn2c(C)c1CC(=O)NCCCN1CCCC1=O | -0.4 | -0.21
O=C1CCC(C(=O)OCc2csc(Nc3ccccc3)n2)N1 (configuration not stated) | -0.35 | nt
FC(F)(F)c1ccc(NCC2CCCO2)nc1 (configuration not stated) | -0.8 | 6.5
COc1ccc(CCOC(=O)Nc2cn(C)nc2C(F)(F)F)cc1OC | nt | -0.5
CCNS(=O)(=O)c1ccc(-c2cc(C)no2)s1 | 1.6 | 0.045
Cc1ccc(S(=O)(=O)N2CCCC(C(=O)N/N=C3\CCS(=O)(=O)c4ccc(F)cc43)C2)cc1 (configuration not stated) | -0.45 | nt
CC(=O)n1cc(C(SCc2ccccc2)C(NO)C(=O)OCc2ccccc2)c2ccccc21 (configuration not stated) | nt | -0.58
CCOc1ccc(-c2cc3ccccn3c2)cc1 | -0.4 | 8.5
COc1ccccc1NC(=O)CSc1nc2sc3c(c2c(=O)n1-c1ccccc1)CC(C)(C)OC3 | -0.55 | 0.66
O=C(CSc1ncccn1)NC12CC3CC(CC(C3)C1)C2 | 0.8 | nt
CCC(=O)c1ccccc1OCCn1cnc2ccccc2c1=O | -0.75 | 0.2
COc1cc2nc(NCCCN(C)Cc3ccccc3)n3nc(-c4ccccc4)nc3c2cc1OC | -0.2 | 0.12

In the list so far, these contain a tert-butyl group:
SMILES | AID504770 | CapD inh
CC(C)(C)c1csc(-c2ccc(-c3csnn3)cc2)n1 | -1.8 | -0.92
CC(C)(C)OC(=O)N1CCC(O)CC1 | -0.45 | -0.34
Cc1oc(C(C)(C)C)cc1C(N)=O | 0.7 | 1.2
CCNc1nc(NCC)n2c(SCC(=O)c3ccc(C(C)(C)C)cc3)nnc2n1 | nt | -0.38

Ordered by SMILES length (low to high): 3 of the compounds above
SMILES | AID504770 | CapD inh
CCC(=O)c1ccccc1OCCn1cnc2ccccc2c1=O | -0.75 | 0.2
O=C(CSc1ncccn1)NC12CC3CC(CC(C3)C1)C2 | 0.8 | nt
Fc1ccccc1-c1nc(N2CCC3(CC2)OCCO3)c2ccccc2n1 | nt | -0.28

An excerpt of these results, as a markdown table:
| SMILES | AID504770 | CapD inh |
| --- | --- | --- |
| Cc1ccc(S(=O)(=O)N2CCCC(C(=O)N/N=C3\CCS(=O)(=O)c4ccc(F)cc43)C2)cc1 (configuration not stated) | -0.45 | nt |
| O=C(c1cc(Cl)cc(Cl)c1)c1cc(Cl)cc(Cl)c1 | nt | 0.04 |

Continuation:
SMILES | AID504770 | CapD inh
O=C(NCCN1CCN(Cc2ccccc2)CC1)c1ccc2c(Cl)c3c(nc2c1)CCCC3 | 0.15 | 0.045
CC1=NN(c2ccccc2)C(=O)C1C(=O)c1ccc(Br)cc1 (configuration not stated) | nt | -0.77
CC(C)(CC(=O)O)CC(=O)Nc1ccc2ccccc2n1 | -1.1 | 58
O=C(CSc1ccccc1)Nc1nc2c(s1)CCCC2 | 0.55 | nt
CCOC(=O)c1cccc(C(=O)NC2=CC(=O)CC(C)(C)C2)c1 | -0.2 | -1.1
Cc1ccc(N=Cc2cc3ccccc3nc2Cl)cc1Cl | -0.55 | 0.23
COc1ccccc1NC(=O)CCCc1ccccc1 | 1.9 | -0.72
CC(C)(C)C1=NNC2=C(c3nc(-c4ccc(Cl)cc4)cs3)C(N)=NC2C1=O (configuration not stated) | 0.7 | nt
Cn1ccsc1=NC(=O)CCN1C(=O)c2ccccc2C1=O | 1.9 | nt
Cc1ccc(NC(=O)CC23CC4CC(CC(C4)C2)C3)cc1 | -0.25 | 0.12
O=C(NCSC1=NCCS1)c1ccccc1 | -0.55 | -0.27
CCN(Cc1ccc2c(c1)OCO2)C(=O)c1oc2c(F)cccc2c1C | -0.4 | nt
O=C1NC(=O)C(C2SC(=O)NC2=O)S1 (configuration not stated) | 0.05 | nt
O=C(CSc1nc2ccccc2s1)OCC(=O)N1c2ccccc2Sc2ccccc21 | nt | -0.095
COc1ccc(-c2noc(=O)n2CC(=O)N2CCC(C)CC2)cc1 | 0.2 | 1.4
O=[S@@]1c2ccccc2Nc2cc(C(F)(F)F)ccc21 | -1.4 | 3.3
COc1cc(C2Nc3ccc4ccccc4c3C3=C2C(=O)CC(C)(C)C3)ccc1OCc1cc2c(cc1Cl)OCO2 (configuration not stated) | nt | -0.3
Cc1[nH]c2ccc(C(=O)Nc3ccc4c(c3)OCCO4)cc2c1C | 2.5 | nt
N#Cc1ccc(C(=O)NC2CCC(NC(=O)c3ccc(C#N)cc3)CC2)cc1 (configuration not stated) | -1.1 | -0.14
O=C1C2C3C=CC(CO)(O3)C2C(=O)N1c1cccc2ccccc12 (configuration not stated) | nt | -0.16

An unsorted share of the library. About 0.37% of those tested had a hit in this group.
